Compound activity as filed in PubChem BioAssay.
HCMV NEC inh – inhibitors of HCMV UL50-UL53 nuclear egress complex interaction. HTRF UL50-UL53 interaction, normalized percent inhibition. inhibition, % (concentration not given with the values). 190,000 tested, 0.15% active. AID 1918969;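 active = both replicates at 50% or more, plus weaker picks with an unusually low signal ratio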;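 note: stock transfer was 100 nL into about 20 µL; 0% = negative control wells and 100% = wells with untagged competitor protein; inactives centre near -12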
Sa growth inh – S. aureus growth inhibition; S. aureus RN4220 growth, OD600, 20 h, 42 °C; stronger effect = lower value; relative growth, % (no concentration beside the values); 170,000 tested, 0.53% active; AID 720641;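 active = growth at 42 °C up to 50% and 20 or more points under that at 30 °C, or under 10% at both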;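 note: 300 nL library stock went into each well; scaled to the means of positive and negative controls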
GIV-Gai inh – blocks GIV peptide binding to rat Galpha-i3. percent of control (FP), % (concentration not given with the values). 210,000 tested, 0.42% active. Galpha-i3/FITC-GIV peptide fluorescence polarization, 90 min; stronger effect = lower value; scaled: aluminum fluoride 0%, vehicle 100%;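 active = replicate mean at 85% of control or lower, very high polarization wells dropped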;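 note: wells of about 15 µL received 100 nL stock; the first replicate is given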
Target sequence (P08753 whole entry, looked up): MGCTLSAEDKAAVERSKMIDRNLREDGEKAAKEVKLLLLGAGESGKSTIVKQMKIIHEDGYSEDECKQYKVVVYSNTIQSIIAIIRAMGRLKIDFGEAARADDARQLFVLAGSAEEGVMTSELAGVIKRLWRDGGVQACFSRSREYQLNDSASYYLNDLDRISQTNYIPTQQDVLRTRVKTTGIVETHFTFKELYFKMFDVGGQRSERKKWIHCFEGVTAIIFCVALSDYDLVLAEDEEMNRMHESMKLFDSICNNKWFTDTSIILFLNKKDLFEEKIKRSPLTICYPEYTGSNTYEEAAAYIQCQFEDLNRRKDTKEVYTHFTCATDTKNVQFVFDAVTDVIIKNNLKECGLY
Sa growth inh second temp – also measured in Sa growth inh; calls as there; relative growth, %; measured here: growth at 30 °C;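 optical density after 20 h as mean of two plates; 100% = untreated growth and lower means inhibition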
Active calls of the source: *; nt = not tested or not shown; & = joins results of further samples.

SMILES,Sa growth inh,Sa growth inh second temp,HCMV NEC inh,GIV-Gai inh
COc1ccc(NC(=O)C2CCCN(S(=O)(=O)c3ccc4c(c3)CCCC(=O)N4)C2)c(OC)c1 (stereo not drawn),93,68,-4,105&103
CC(=O)Nc1nc2ccc(CC(=O)N3CCN(c4ccccn4)CC3)cc2s1,nt,nt,-22,97
O=C(Oc1cc2sc3ccccc3[nH]c2c2c(=O)c3ccccc3c(=O)c12)c1ccccc1,nt,nt,-8,105
COc1ccc(-c2cc3nnc(-c4ccccc4)nc3s2)cc1,101,97,4,100
CCOC(=O)c1sc2nc(C)n(CC(=O)Nc3ccc(F)c(Cl)c3)c(=O)c2c1C,nt,nt,-5,102
Cc1ccc2c(=O)cc(C(=O)NCC(c3ccc(C(C)(C)C)cc3)N(C)C)oc2c1C (stereo not drawn),nt,nt,-33,110
COC1=CC(=O)OC12CCCCC2,109,86,-17,nt
CCN(CC)C(=O)Cn1c(=O)n(Cc2ccc(C(=O)NCc3ccccc3Cl)cc2)c(=O)c2ccccc21,101,90,0,109
CN(Cc1ccccc1F)c1ccc(S(=O)(=O)N2CCCC2)cn1,96,90,-19,nt
Cc1cc(C)cc(NC(=O)CS(=O)(=O)c2cccc3nsnc23)c1,98,70,nt,98
CC(C)c1cnc2c(c1SCC(=O)Nc1ccccc1C(F)(F)F)c(=O)n(C)c(=O)n2C,81,91,nt,107
COc1ccc(-c2cc(NCc3ccc(F)cc3)n3cnnc3n2)cc1,92,84,-31,105
Cc1ccc(Cl)cc1NC(=O)COC(=O)C1CCCC1,132,93,-19,nt
Oc1c(C(c2ccc(Cl)cc2Cl)N2CCN(c3ccccc3)CC2)sc2nc(-c3ccco3)nn12 (stereo not drawn),139,88,nt,100
Cc1ccccc1C(=O)N1CCC(c2nc3ccccc3o2)CC1,nt,nt,-10,116
O=C(O)Cc1cc(=O)[nH]c(=O)[nH]1,96,88,-31&-23,nt
CCOC(=O)CCCc1ccc(/C=C/C(=O)O)s1,109,90,-21,nt
C=CCN1C(=O)c2ccc(C(=O)OCC(=O)c3cc4ccccc4o3)cc2C1=O,94,103,-1,nt
CC1=C(C#N)C(c2ccc(O)cc2Cl)C(C#N)=C(C)N1,100,92,-18,100
COc1ccc(NC(=O)CCn2nc(-c3ccc(Cl)cc3)c3ccccc3c2=O)cc1,102,96,-23,105

Compounds shown so far containing a furan ring, fused or not, in the order listed:
SMILES,Sa growth inh,Sa growth inh second temp,HCMV NEC inh,GIV-Gai inh
Oc1c(C(c2ccc(Cl)cc2Cl)N2CCN(c3ccccc3)CC2)sc2nc(-c3ccco3)nn12 (stereo not drawn),139,88,nt,100
C=CCN1C(=O)c2ccc(C(=O)OCC(=O)c3cc4ccccc4o3)cc2C1=O,94,103,-1,nt

Four entries from above, as labelled records.
Oc1c(C(c2ccc(Cl)cc2Cl)N2CCN(c3ccccc3)CC2)sc2nc(-c3ccco3)nn12 (stereo not drawn)
  Sa growth inh: 139	Sa growth inh second temp: 88	HCMV NEC inh: nt	GIV-Gai inh: 100

Cc1ccccc1C(=O)N1CCC(c2nc3ccccc3o2)CC1
  Sa growth inh: nt	Sa growth inh second temp: nt	HCMV NEC inh: -10	GIV-Gai inh: 116

O=C(O)Cc1cc(=O)[nH]c(=O)[nH]1
  Sa growth inh: 96	Sa growth inh second temp: 88	HCMV NEC inh: -31&-23	GIV-Gai inh: nt

CCOC(=O)CCCc1ccc(/C=C/C(=O)O)s1
  Sa growth inh: 109	Sa growth inh second temp: 90	HCMV NEC inh: -21	GIV-Gai inh: nt

(further entries)
SMILES,Sa growth inh,Sa growth inh second temp,HCMV NEC inh,GIV-Gai inh
CN(C)c1ccc(C2C3=C(CC(C)(C)CC3=O)Nc3ccccc3N2C(=O)c2ccccc2)cc1 (stereo not drawn),nt,nt,-18,107
CC(=O)N1CCc2cc(Br)cc(S(=O)(=O)N(C)Cc3ccccc3)c21,74,87,nt,108
Cc1nnc2c(N3CCN(c4ccccc4F)CC3)nc3ccccc3n12,96,103,-13,100
CN(C(=O)c1cc(-c2cccs2)nc2ccccc12)c1ccccc1,72,68,-64,nt
CN1CCC(=C2c3ccccc3C=Cc3ccccc32)CC1,102&92&92,96&82&83,-48&-52&-1&-10&-62&-27&-37,108&103
CC(C)N(CC(N)=O)Cc1cccc2ccccc12,82,97,-16,nt
CN(C)C(=O)COc1cccc2ccccc12,111,96,18,110
CC(C)c1ccc2oc3nc(N)c(C#N)cc3c(=O)c2c1,93,91,-21,107
CC1CCC(C(=O)NC(C(=O)Nc2ccc(F)c(Cl)c2)C(C)C)CC1 (stereo not drawn),78,93,nt,110
CCn1cc2nc(SCc3c(F)cccc3Cl)n(CCc3ccccc3)c(=O)c2n1,81,91,nt,102
N#Cc1cccn1Cc1ccc(F)cc1Cl,102,93,-12,101
Cc1cc(C(=O)Nc2nccs2)c(C)s1,97,67,-14,nt
CCCS(=O)(=O)N1CCCC1C(=O)O (stereo not drawn),87,93,8,nt
O=C(/C=C/c1ccco1)NC(c1ccccc1)c1ccccc1,120,84,nt,101
NC(=O)c1cc(-c2csc(=NC3CC3)n2/N=C/c2ccccn2)ccc1O,90,66,-83,nt
Cc1cc(C(=O)N2CCC(C(=O)O)CC2)c(C)o1,92,88,-22,98
C=Cc1cccc(NC(=O)c2cccs2)c1,70,86,-4,105
Cc1ncc(CSc2ccccc2N=Cc2cc(Cl)cc(Cl)c2O)c(CO)c1O,91,82,-15,99
COc1ccc(CC(=O)O)c(C(=O)O)c1,90,81,-12,nt
COc1ccc(-c2cn3cccnc3n2)cc1NC(=O)Cc1ccccc1,100,90,nt,109
CC1(C(=O)NC2CCCCC2)Cn2c(nc3ccccc32)C(=O)N1Cc1cccnc1 (stereo not drawn),nt,nt,68,105
N#Cc1cc(C(=O)c2cc(Cl)ccc2O)c[nH]c1=O,124,71,-8,nt
CCCC(=O)N(Cc1ccccc1)C(C)C,101,103,-3,94
CCn1cc(C(=O)NCCc2ccc(OC)c(OC)c2)c(=O)c2cc(S(=O)(=O)N3CCCCCC3)ccc21,101,93,15,100
Cn1c(=O)n(C)c2cc(/C=C(/C#N)C(=O)NCc3ccco3)ccc21,109,83,-37,96
CC1CC(C)(C)Nc2ccc(OC(=O)c3ccccc3)cc21 (stereo not drawn),112,81,-45,nt
CC1CC(=O)N(CC(=O)NCC2CCCO2)c2cc(S(=O)(=O)N3CCCCC3)ccc2S1 (stereo not drawn),nt,nt,-20,101
O=C(O)c1cccc(S(=O)(=O)Nc2ccc(N3CCCCC3)cc2)c1,72,90,-32,nt
Cc1cc(C)nc(-n2nc(C)c(C3=CCC(C(C)(C)C)CC3)c2N)n1 (stereo not drawn),24,29,-22,nt
O=c1[nH]c2ccccc2nc1-c1cc(F)ccc1NCc1ccccn1,nt,nt,-5,108
O=C(CCN(C(=O)c1ccc(F)c(Cl)c1)C1CC1)N1CCNCC1,nt,nt,17,101
Cc1cccc(OCc2cc(=O)n3nc(-c4ccco4)sc3n2)c1C,87,58,7,105
O=c1cc(O)c2sc(Nc3ccc(F)cc3)nc2[nH]1,98,59,3,139
CC(C)c1nc(-c2ccc(C(=O)N3CCN(c4nc5ncccc5o4)CC3)cc2)no1,nt,nt,-11,104
Cc1nc2sccn2c(=O)c1S(=O)(=O)NC1CCCC1,nt,nt,-22,102
COCc1nc2ccccc2n1C(C)c1ccccc1 (stereo not drawn),92,86,6,102
Cc1cc(NC(=O)C2CCC2)ccc1Br,94,105,19,nt
Cc1c(C(=O)N2CCCCCC2)c(S(=O)(=O)NCc2ccc(Br)cc2)c(C)n1C,107,94,nt,100
CCOc1ccc(C(=O)Nc2nc3cc4c(cc3s2)OCO4)cc1,104,79,-3,99
O=C(/C=C/C(=O)N1CCOCC1)Nc1nccs1,98,92,-8,nt
Cc1ccccc1C(=O)NCc1ccc2c(c1)CCN2C(=O)c1ccc(F)cc1,99,89,nt,104
Cc1c(-c2nnc(C(=O)NC3CCCCC3)o2)oc2ccccc12,nt,nt,18,105
CCNC(=O)CC1C(=O)N(c2ccc(C)cc2)C(=O)N1CCOC (stereo not drawn),103,87,-17,100
N#CCN(CC#N)C(=O)C(Sc1ccccc1)c1ccccc1 (stereo not drawn),96,81,-3,nt
O=C(O)CSCC(=O)Nc1ccc(Cl)cc1,99,96,-24,nt
NNc1ccc2nncn2n1,84,94,nt,110
O=C(Cn1cnc2sc3c(c2c1=O)CCCC3)NCC(=O)N1CCN(Cc2ccc3c(c2)OCO3)CC1,nt,nt,-20,104
O=C(c1cccc2cccc(O)c12)N1CCCCC1,94,78,-1,97
COc1ccccc1C(Nc1nc(C)cc(C)n1)c1c(NC(=O)c2ccccc2)sc(C)c1C (stereo not drawn),nt,nt,-23,110
Cc1nn(C(C)(C)C)c(OC(=O)C(C)(C)C)c1Sc1ccccc1,97,85,-6,104
CC1(C)CSC(=Nc2cccc(C(F)(F)F)c2)N1C(=O)/C=C/c1ccco1,99,95,-9,nt
Nc1c(C(=O)c2ccc3c(c2)OCO3)sc(Nc2ccccc2F)c1S(=O)(=O)c1ccccc1,102,94,nt,103
CS(=O)(=O)Nc1ccc(N2CCN(c3ccc(F)cc3)CC2)c(C(=O)O)c1,nt,nt,-24,106
COc1cc(OC)c(NC(=O)CN2C(=O)C(C)(C)c3ccccc32)cc1Cl,nt,nt,9,103
COc1ccc(CN2CC(C(=O)NCCC(C)C)CC2=O)cc1 (stereo not drawn),92,89,-6,100
CC1CC1C(=O)Nc1ccc2[nH]ncc2c1 (stereo not drawn),105,107,-27,101
O=C(NN1C(=O)C2C3c4ccccc4C(c4ccccc43)C2C1=O)c1cccnc1 (stereo not drawn),95,100,-26,99
CC(C)CNS(=O)(=O)c1ccc(F)cc1,86,86,-17,nt
O=C1CC(c2nc3ccccc3n2C/C=C/c2ccccc2)CN1c1ccccc1Cl (stereo not drawn),nt,nt,16,106
COc1ccc2c(CNCc3cccs3)c(C(=O)O)n(Cc3cccc(F)c3)c2c1,104,87,nt,101

Shown with two lines to a compound: part of the list above
Below each compound: Sa growth inh | Sa growth inh second temp | HCMV NEC inh | GIV-Gai inh
- N#CCN(CC#N)C(=O)C(Sc1ccccc1)c1ccccc1 (stereo not drawn)
→ 96 | 81 | -3 | nt
- O=C(O)CSCC(=O)Nc1ccc(Cl)cc1
→ 99 | 96 | -24 | nt

Carrying on.
SMILES,Sa growth inh,Sa growth inh second temp,HCMV NEC inh,GIV-Gai inh
CCCCC(=O)Nc1cc(N2CCn3c(nc4ccccc43)C2)ccc1C,nt,nt,4,105
CN1CCN(c2nc(-c3ccc(Cl)s3)cs2)CC1,117,84,-63,nt
N#C/C(=C\C1=C(N2CCOCC2)C(=C/c2ccc(Cl)cc2Cl)/CC1)c1nnc(N2CCOCC2)n1-c1ccccc1,34,25,-75,nt
Cc1cc(C)n(-c2ccc(C(=O)Nc3ccc4c(c3)OCCO4)cc2)n1,97,78,-5,nt
O=C(Nc1cc(=O)[nH]c(=O)[nH]1)c1cccc(C(F)(F)F)c1,99,89,-22,99
O=C(Cn1cccc1)N1CCN(Cc2ccccc2)CC1,108,89,5,104
COC(=O)c1cc2c(s1)-c1ccccc1OC2,107,76,nt,106
Cc1nn(C2CCS(=O)(=O)C2)c(C)c1CN(C)C(=O)c1ccc(S(=O)(=O)N(C)C)cc1 (stereo not drawn),93,92,-11,nt
CN(C(=O)c1ccc2c(c1)N(Cc1ccc(F)cc1)C(=O)c1ccccc1S2=O)C1CCCCC1 (stereo not drawn),115,81,1,105
CCOc1ccc(NC(=O)CC2C(=O)N(CC)C(=S)N2NC(=O)c2ccncc2)cc1 (stereo not drawn),98,87,-19,105
CN(Cc1ccccc1F)C(=O)c1ccccc1S(C)(=O)=O,95,90,-7,nt
Cc1nc(-c2ccccc2)sc1-c1ccc(SCC(=O)NCc2ccccc2)nn1,124,88,nt,103
COC(=O)c1ccc(COC(=O)c2ccc(I)cc2)cc1,138,90,-20,nt
O=C(OCC1CCCO1)c1c(Cl)cccc1Cl (stereo not drawn),95,98,-5,nt
FC(F)(F)c1ccc(N2CCN(Cc3c[nH]c4ccccc34)CC2)nc1,104,80,-6,105
CCOC(=O)N1CCN(C(=O)c2cnn3c(C(F)(F)F)cc(-c4cccc(OC)c4)nc23)CC1,84,103,-35,101
CCOC(=O)c1c(CN(C)C)oc2ccc(O)cc12,105,87,-15,101

Full records, looked up by structure. Order of screens: Sa growth inh, Sa growth inh second temp, HCMV NEC inh, GIV-Gai inh
Cc1nn(C2CCS(=O)(=O)C2)c(C)c1CN(C)C(=O)c1ccc(S(=O)(=O)N(C)C)cc1 (stereo not drawn) is listed as 93, 92, -11, nt
Cc1nc(-c2ccccc2)sc1-c1ccc(SCC(=O)NCc2ccccc2)nn1 is listed as 124, 88, nt, 103
N#C/C(=C\C1=C(N2CCOCC2)C(=C/c2ccc(Cl)cc2Cl)/CC1)c1nnc(N2CCOCC2)n1-c1ccccc1 is listed as 34, 25, -75, nt
CN(Cc1ccccc1F)C(=O)c1ccccc1S(C)(=O)=O is listed as 95, 90, -7, nt
CN(C(=O)c1ccc2c(c1)N(Cc1ccc(F)cc1)C(=O)c1ccccc1S2=O)C1CCCCC1 (stereo not drawn) is listed as 115, 81, 1, 105
